From PubChem BioAssay
KCNQ2 pot – enhances the rat KCNQ2 potassium channel; O88943; CHO-K1 KCNQ2, FluxOR thallium flux fluorescence; hits give high values; B-score at 10 µM; hit rate 0.54% among 310,000;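 active = fluorescence ratio B-score at least 3 SD of library B-scores, with initial fluorescence B-score within 3 SD, cut at about 5.3 in these data; same plate scores as AID 2156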;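 also: B-score of peak minus minimum over baseline fluorescence ratio after K+ and Tl+ stimulus; positive B-score means potentiation of KCNQ2 with more thallium influx and brighter signal; only the inactives scoring about 0 or higher are listed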
Target sequence (O88943 whole entry, looked up): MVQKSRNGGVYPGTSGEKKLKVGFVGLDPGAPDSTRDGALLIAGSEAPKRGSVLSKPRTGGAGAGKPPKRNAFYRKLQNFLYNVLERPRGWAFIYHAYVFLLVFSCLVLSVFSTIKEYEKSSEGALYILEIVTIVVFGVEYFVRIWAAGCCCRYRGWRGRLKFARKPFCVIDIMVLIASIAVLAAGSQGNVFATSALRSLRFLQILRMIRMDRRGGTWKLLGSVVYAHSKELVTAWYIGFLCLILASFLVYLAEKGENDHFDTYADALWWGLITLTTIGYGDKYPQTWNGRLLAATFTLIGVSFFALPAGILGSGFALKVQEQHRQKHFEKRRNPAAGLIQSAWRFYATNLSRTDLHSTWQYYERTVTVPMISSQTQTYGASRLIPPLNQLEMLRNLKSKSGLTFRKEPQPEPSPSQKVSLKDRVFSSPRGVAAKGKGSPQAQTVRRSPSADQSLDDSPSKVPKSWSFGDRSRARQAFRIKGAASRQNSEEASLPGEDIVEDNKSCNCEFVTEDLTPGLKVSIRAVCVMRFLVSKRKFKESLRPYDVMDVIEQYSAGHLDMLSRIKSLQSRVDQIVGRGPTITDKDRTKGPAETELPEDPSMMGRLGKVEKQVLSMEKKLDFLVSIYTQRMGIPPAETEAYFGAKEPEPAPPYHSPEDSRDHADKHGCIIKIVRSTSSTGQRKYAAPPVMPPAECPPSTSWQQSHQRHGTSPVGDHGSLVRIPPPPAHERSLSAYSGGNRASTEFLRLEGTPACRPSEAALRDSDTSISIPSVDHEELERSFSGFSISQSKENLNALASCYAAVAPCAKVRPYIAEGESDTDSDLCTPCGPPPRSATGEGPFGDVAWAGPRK
KCNQ2 pot baseline – also measured in KCNQ2 pot; calls as there; B-score; compound at 10 µM; measured here: initial fluorescence intensity artifact check;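 brightness before thallium and not channel activity; 0 = typical well and far values either way flag optical interference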
* = called active by the depositor. Only part of the results is shown; the hit share may differ from the screen's.

Screens in order: KCNQ2 pot, KCNQ2 pot baseline
CC(NC(=O)c1cc(COc2ccccc2)on1)c1nccs1 (stereo unspecified)
→ 0.95, 1.12
CCCCc1cc(=O)oc2cc(C)cc(O)c12
→ 0.96, -1.84
COc1ccc(NC(=O)CSCC(=O)NCc2ccco2)cc1
→ 0.74, 0.71
COc1ccc(NCC(=O)N/N=C/c2c(C)nn(Cc3ccccc3)c2Cl)cc1
→ 0.86, -0.16
N#CC1(NC(=O)COC(=O)c2cc([N+](=O)[O-])ccc2N2CCOCC2)CCCCC1
→ 0.01, -1.14
O=C(c1ccc(-c2cc(Cl)ccc2Cl)o1)N1CCOCC1
→ 0.27, -0.21
COC(=O)c1c(NC(=O)c2cnccn2)sc2c1CCC2
→ 0.94, -0.11
O=C1CC(N2C(=O)/C(=C/C=C/c3ccccc3)SC2=S)C(=O)N1c1ccccc1 (stereo unspecified)
→ 0.91, 0.5
Cc1cccc(NS(=O)(=O)c2c(C)nc3scc(C)n3c2=O)c1
→ 0.02, 3.63
O=C(Nc1ccccc1C(=O)Nc1ccc(Br)cn1)c1cccc([N+](=O)[O-])c1
→ 1.15, -2.53
CCO[C@H]1OC(C(=O)NCc2ccccc2)=C[C@@H](c2ccc3c(c2)OCO3)[C@@H]1CCCO
→ 2.77, -0.59
CC(=O)Nc1ccc(NC(=O)CCn2nnc3ccccc32)cc1
→ 0.01, -1.61
CC1CCc2sc(NC(=O)C3CC(Cl)=CCC3C(=O)O)c(C#N)c2C1 (stereo unspecified)
→ 4.49, 0.02
CN(C)c1c(F)cc(-c2nn[nH]n2)cc1F
→ 2.01, -0.26
O=C1CN(c2nc(-c3ccccc3)c3cc(Br)ccc3n2)c2ccccc2N1
→ 0.88, -0.86
O=C(Cc1cccc(C(F)(F)F)c1)NCC(c1ccco1)N1CCCCC1 (stereo unspecified)
→ 0.86, 0.57
O=c1cccc2n1Cc1cc3ccccc3nc1-2
→ 0.16, -0.07
O=S(=O)(NCC(c1cccnc1)N1CCN(Cc2ccccc2)CC1)c1cc(F)ccc1F (stereo unspecified)
→ 0.88, 0
CCOC(=O)n1c(=O)n(C)c2ccc(Cl)cc21
→ 1.24, -0.7
COc1cc2c(cc1NC(=O)C(C)Sc1ccc(NC(C)=O)cc1)oc1ccccc12 (stereo unspecified)
→ 0.23, -1.16
Cc1cc(NC(=O)CCC(=O)N(CC(=O)NCC2CCCO2)c2ccc3c(c2)OCCO3)no1 (stereo unspecified)
→ 0.16, 0.11
CC1CCC2C(C1)OS(=O)(=O)NC2(C)C (stereo unspecified)
→ 0.71, -1.17
O=C(/C=C/c1ccc(Cl)cc1Cl)NC(=S)Nc1ccccn1
→ 0.48, -1.5
CCOc1ccc(C(=O)Nc2nnc(SCC(=O)NCC3CCCO3)s2)cc1OCC (stereo unspecified)
→ 1.42, 0.49
Cc1nn(-c2ccccc2)c2sc(-c3n[nH]c(=S)o3)cc12
→ 2.2, -0.11
Cc1ccc(S(=O)(=O)N(C)C)cc1NC(=O)c1cccs1
→ 0.5, -0.02
CN(C)S(=O)(=O)c1cccc(NC(=O)CCCC2CCCCC2)c1
→ 1.96, 0.02
OCCCNc1ncnc2c1[nH]c1ccccc12
→ 0.68, -0.05
O=C(CCl)NCc1c(Cl)cccc1-n1cccc1
→ 1.35, 0.07
CC(c1ccccc1)N(NC(=O)C(O)(c1ccccc1)c1ccccc1)C(=O)c1ccccc1 (stereo unspecified)
→ 1.35, -2.73
Cc1c(C#N)c(N)nc(Cl)c1C#N
→ 0.12, -0.04
CCN(CC)c1nc2n(c(=O)n1)CCO2
→ 0.02, 0.32
COc1ccc(CCN2CC(C(=O)N(C)Cc3ccccc3OC)CCC2=O)cc1 (stereo unspecified)
→ 2.12, -0.7
Cc1ccc([N+](=O)[O-])cc1N
→ 1.07, -0.8
CSCCNCc1c(C(=O)N2CCOCC2)nc2c(C)cccn12
→ 1.32, 0.02
COc1ccc(Cl)cc1NC(=O)C(=O)NCc1ccncc1
→ 1.16, -0.44
C=CCn1c(SCC(=O)c2[nH]c(C)c(C(=O)OCC)c2C)nc2scc(-c3ccccc3)c2c1=O
→ 0.3, 1.02
Oc1c(Br)cc(Br)cc1/C=N/Nc1ccc(Cl)nn1
→ 10.6*, 1.12*
CCN(CC)c1ccc(NC(=S)NCC2CCCO2)cc1 (stereo unspecified)
→ 1.34, -1.1
CC(C)c1cc(CNC(=O)CCc2nnc(CCCCc3ccccc3)o2)on1
→ 1.52, 1.14
O=C(c1ccc(Br)o1)N1CCN=C1SCc1cccnc1
→ 1.04, -1.86
COc1ccc(OC)c(NC(=O)CCNS(=O)(=O)c2ccc3c(c2)c(=O)n(C)c(=O)n3C)c1
→ 0.47, -2.2
Cn1c(=O)n(C)c2cc(S(=O)(=O)NCc3ccco3)ccc21
→ 0.79, 0.29
CC(=O)c1c(C)[nH]c(C(=O)N2CCN(S(=O)(=O)c3ccc(F)c(F)c3)CC2)c1C
→ 1.84, -0.82
N/C(=N\OC(=O)Cc1ccc(-c2ccccc2)cc1)c1ccccn1
→ 0.25, -0.34
N/C(=N\OC(=O)c1cccc(F)c1)c1cccc([N+](=O)[O-])c1
→ 1.52, 1.35
CN(C)C(=O)Nc1cnc2ccccc2c1
→ 2.12, 0.33
O=C(Cc1ccccc1)Nc1ccc(-c2nnc(-c3ccco3)o2)cc1
→ 1.32, 1.09
CCCCCOc1ccc(C2C(C(C)=O)=C(C)Nc3ncnn32)cc1OC (stereo unspecified)
→ 0.03, 1.27
CCOC(=O)CNc1nc(C(C)(C)C)nc2c1nnn2Cc1ccccc1
→ 2.12, 0.44

Full records as entered above. Order of values: KCNQ2 pot, KCNQ2 pot baseline
Results for `OCCCNc1ncnc2c1[nH]c1ccccc12` = 0.68, -0.05
Results for `COc1cc2c(cc1NC(=O)C(C)Sc1ccc(NC(C)=O)cc1)oc1ccccc12` (stereo unspecified) = 0.23, -1.16

(listing goes on)
Screens in order: KCNQ2 pot, KCNQ2 pot baseline
C#CCOCCOCCOCCNc1nc(N2CCN(C(=O)[C@H](CCC(=O)O)n3cc(C(N)[C@H](C)CC)nn3)CC2)nc(N2CCN(C(=O)[C@H](CCC(=O)O)n3cc(C(N)[C@H](C)CC)nn3)CC2)n1 (stereo partly specified)
→ 0.42, 0.99
CS/C(N)=N/N=C/c1ccc2c(c1)OCO2
→ 0.12, 1.59
CCOC(=O)Cc1csc(NC(=O)CN2CCCCC2)n1
→ 1.38, -0.43
NC1=NC[C@H](c2ccccc2)N1CCc1cc(C(F)(F)F)cc(C(F)(F)F)c1
→ 0.99, 1.1
Cc1cc(C)n2c(SCCN3C(=O)c4ccccc4C3=O)nnc2n1
→ 1.46, -0.88
CCCCN1CCCC1CNC(=O)c1cc(C#N)c2ccccc2c1OC (stereo unspecified)
→ 0.8, 0.65
CN(C(=O)NC1CCCCC1)c1ccccc1
→ 0.53, 0.46
Cn1nc([N+](=O)[O-])nc1Oc1ccccc1F
→ 2.99, 2.01
COc1ccccc1-c1coc2cc(O)cc(O)c2c1=O
→ 0.34, -0.78
NS(=O)(=O)c1ccc(CCNC(=O)Cc2ccccc2[N+](=O)[O-])cc1
→ 0.85, -0.04
COCCn1c(SCC(N)=O)nnc1-c1c[nH]c2ccccc12
→ 1.02, -0.82
CCc1ccc(C(=O)NCc2ccc(Cl)cc2Cl)cc1
→ 1.72, -0.89
Nc1nc(-c2ccc(Cl)cc2)nc(-c2ccc(Cl)cc2)n1
→ 0.91, -0.03
O=C(Oc1ccc(N(C(=O)c2ccncc2)S(=O)(=O)c2ccc(Cl)cc2)cc1)c1ccncc1
→ 0.28, 0.02
Cc1ccc(C(=O)c2cnc3cc4c(cc3c2S(=O)(=O)c2ccccc2)OCCO4)cc1
→ 0.62, -4.53
O=C(Nc1ccc(NC(=O)c2cccs2)cc1)c1cccnc1
→ 0.38, 0.07
CCC1(c2ccc(F)cc2)NC(=O)N(CC(=O)Nc2ccc(C(N)=O)cc2)C1=O (stereo unspecified)
→ 0.44, -0.04
O=C(O)CC1(CC(=O)NCc2ccncc2)CCCCC1
→ 0.33, 1.06
FC(F)(F)c1ccc2c(c1)[nH]c(=S)n2C1CC1
→ 0.73, -0.88
CC(C)(C)n1ncc2c(=O)n(CC(=O)N3CCCCC3)cnc21
→ 0.1, 0.56
CCc1ccc(OC(C)C(=O)N(Cc2ccccc2)C2CCS(=O)(=O)C2)cc1 (stereo unspecified)
→ 0.03, -1
Cc1cccc(C(=O)Oc2cc(C)[nH]c(=O)c2[N+](=O)[O-])c1
→ 0.07, 0.06
CCCSc1nnc(NC(=O)c2ccco2)s1
→ 0.02, 0.18
CCC(C)(C)n1nnnc1C(c1cc2cc(OC)ccc2[nH]c1=O)N1CCc2ccccc21 (stereo unspecified)
→ 3.03, -0.73
Cc1ccc(S(=O)(=O)N(C)C)cc1NC(=O)COC(=O)/C=C/c1ccc(F)cc1
→ 1.57, -1.68
O=C1CN2C(=N1)N(Cc1ccccc1)c1ccccc12
→ 0.14, 0.15
Cc1ccc(C(=O)N/C(=C\c2ccco2)C(=O)NCCN2CCOCC2)cc1
→ 1.46, 0.45
O=C(C[n+]1cnn(CC(=O)c2ccc(Cl)cc2Cl)c1)c1ccc([N+](=O)[O-])cc1
→ 0.13, 0.13
Cc1c(C2Nc3ccccc3NC3=C2C(=O)CC(C)(C)C3)cnn1C (stereo unspecified)
→ 0.93, 0.7
CCOC(=O)c1sc(NC(=S)NC(=O)c2cccc(Cl)c2)c(C(=O)OCC)c1C
→ 0.41, -0.23
Cc1ccc2[nH]c3c(NCCCN4CCCC4=O)ncnc3c2c1
→ 1.36, -0.67
C=CCN1CCN(C(c2cc(OC)ccc2OC)c2nnnn2CC2CCCO2)CC1 (stereo unspecified)
→ 0.05, 0
O=C(N/N=C/C1CC=CCC1)c1ccc(O)cc1O (stereo unspecified)
→ 1.37, -1.4
O=c1[nH]c(=O)n(CCc2ccc(F)cc2)c(O)c1C=NCc1ccc2c(c1)OCO2
→ 0.25, -1.13
COc1ccccc1NC(=O)CCCN1C(=O)C2CC=CCC2C1=O (stereo unspecified)
→ 0.03, 0.09
Cc1cc(NC(=O)CSc2nc(C(C)(C)C)nc3ccccc23)no1
→ 2.39, -0.68
Cc1ccc(NC(=O)C2CCN(S(=O)(=O)c3ccccc3)CC2)cc1
→ 2.56, 0.02
CC(=O)N1CCc2cc(C(=O)CN3CCN(c4ccccc4F)CC3)ccc21
→ 0.04, -0.8
COCCNc1cc(NCCOC)c([N+](=O)[O-])cc1[N+](=O)[O-]
→ 0.41, 1.15
N/C(=N\c1nc(CSc2nc3ccccc3s2)cc(=O)[nH]1)Nc1ccc(F)cc1
→ 0.01, -0.85

An excerpt from above in order of length of the SMILES, descending.
Screens in order: KCNQ2 pot, KCNQ2 pot baseline
N/C(=N\c1nc(CSc2nc3ccccc3s2)cc(=O)[nH]1)Nc1ccc(F)cc1
→ 0.01, -0.85
C=CCN1CCN(C(c2cc(OC)ccc2OC)c2nnnn2CC2CCCO2)CC1 (stereo unspecified)
→ 0.05, 0
Cc1ccc2[nH]c3c(NCCCN4CCCC4=O)ncnc3c2c1
→ 1.36, -0.67
O=C(N/N=C/C1CC=CCC1)c1ccc(O)cc1O (stereo unspecified)
→ 1.37, -1.4

Next part
Screens in order: KCNQ2 pot, KCNQ2 pot baseline
CCCC(=O)Nc1ccc(C(=O)NCc2ccccn2)cc1
→ 0.31, 0.32
Fc1ccc(-c2noc(C3CCN(Cc4cccnc4)CC3)n2)cc1
→ 1.2, -0.24
O=C(Nc1ccc(Cl)cc1)c1ccc(-n2cncn2)c([N+](=O)[O-])c1
→ 0.76, 2.02
CC(=O)O/N=C/c1c(NCc2ccccc2)nc2c(C)cccn2c1=O
→ 0.01, -0.63
Cc1ccc(-n2c(SCC(=O)Nc3ccc(Cl)cc3)nc(O)cc2=O)cc1
→ 0.52, -1.58
CC(Nn1cnnc1)c1cc(Cl)ccc1O (stereo unspecified)
→ 0.01, -2.43
O=C(N/N=C\c1cccc(Cl)c1)c1ccc(Cn2cccn2)o1
→ 0.03, 3.99
Cc1nc(SCCC(=O)O)c2cc(-c3ccccc3)sc2n1
→ 4.35, 1.11
O=C(Cn1ncc2c(=O)oc3ccccc3c21)N1CCCc2ccccc21
→ 0.04, -1.4
CC(C)C(C(=O)Nc1ccc2c(c1)OCCO2)N1C(=O)c2ccccc2C1=O (stereo unspecified)
→ 0.31, 1.39
CC(Oc1cccc2ccccc12)C(=O)N/N=C/c1cccnc1 (stereo unspecified)
→ 1.64, -2.05
Cc1cc(NC(=O)c2ccc(S(=O)(=O)N3CCOCC3)cc2)no1
→ 0.35, -0.12
COc1cc2[nH]c(=S)nc(NC3CCCCCC3)c2cc1OC
→ 0.54, 0.19
CCC(=O)N=c1n(C)c2ccccc2n1CCOc1ccccc1
→ 0.71, 0.28
Cc1c(/C(O)=C2/C(=O)C(=O)N(Cc3cccnc3)C2c2cccs2)cnn1-c1ccccc1 (stereo unspecified)
→ 1.85, -3.12
CCc1ccc(CNC(=O)CCS(=O)(=O)Cc2ccc(C)cc2)cc1
→ 0.03, 1.68
CCCOc1ccc(Cl)cc1CNc1ccccc1
→ 1.28, 0.52
C/C=C/c1ccc(OCC(=O)Nc2cc(C(F)(F)F)ccc2N2CCOCC2)c(OC)c1
→ 0.12, -0.38
CC(=O)c1ccc(NC(=O)Cn2cnc(S(=O)(=O)N3CCc4ccccc43)c2)cc1
→ 0.04, 0.59
